VACV Venus inh: vaccinia inhibition (Venus reporter); Potency, µM (top dose mostly 36.5 µM), without a hit: at the highest dose activity change, negative = inhibition, hits mostly inhibitors; actives 0.46% (n = 330,000); Vaccinia virus Venus reporter expression, fluorescence; active means well fitted inhibition curve with a large enough effect; inconclusive means small, poorly fitted or top-dose-only effect; inactive means no such curve, though single readings can be large or run the other way; tested in A549 cells; also: nearly all actives have a fitted effect of over 30% in size; inactives centre near -10
VACV mCherry inh: vaccinia inhibition (mCherry reporter); Vaccinia virus mCherry reporter infection, fluorescence; about a quarter of the inactives have no number; Potency, µM (doses to about 36.5 µM), without a hit: at the highest dose activity change, negative = inhibition, actives largely listed as inhibitors; actives 0.63% (n = 310,000); AID 720579; active = well fitted inhibition curve with a large enough effect; inconclusive = small, poorly fitted or top-dose-only effect; inactive = no such curve, though single readings can be large or run the other way; tested in A549 cells; also: nearly all actives have a fitted effect of over 35% in size; inactives centre near -10
* hit, by the source's call; i = inactive; ? = inconclusive; nt = not tested or not shown. % is scaled to controls: 0 for no effect and ±100 for the full control effect; potency is read from the fitted curve at half-maximal effect.

SMILES	VACV Venus inh	VACV mCherry inh
Cc1ccc2nc3n(c(=O)c2c1)-c1ncccc1C(=O)NC3Cc1ccc(O)cc1 (stereo not given)	-9%	-16%
CCOC(=O)c1c(C)oc2nc(C)nc(NCc3ccc(C)cc3)c12	-11%	-19%
CCC(=O)Nc1cccc(C2=NOC3(C2)C[C@@H](C(N)=O)N(C(=O)C2(C)CC2)C3)c1 (stereo not given in full)	-2%	-5%
Cn1c(NCc2ccccc2F)nc2cc(-c3cccc(C(F)(F)F)c3)sc2c1=O	?	?
Cc1[nH]c(=O)c(Cc2ccccc2)c(O)c1C#N	-14%	i
Cc1c(NC(=O)Nc2cccc(C(F)(F)F)c2)sc2nc3n(c(=O)c12)CCC(C)CC3 (stereo not given)	?	?
Cc1ccc(-c2nn(-c3ccccc3)cc2C2CC(c3cccs3)=NN2C(=O)CCC(=O)O)cc1 (stereo not given)	-12%	-15%
CCOc1ccc(NC(=S)N(CCc2c(C)[nH]c3ccc(C)cc23)Cc2ccco2)cc1	-14%	i
CCC1(CC)SC(N)=NC1=O	-15%	-8%
Cc1nnc(NC(=O)CSc2nnc(-c3ccccc3)n2C)s1	-2%	-8%
FC(F)(F)c1cc(-c2ccccc2)nc2cc(-c3ccccc3)nn12	-8%	11%
CC(=O)N1CCN=C1SCc1ccc(Br)cc1	-8%	3%
Cc1oc(-c2ccccc2F)nc1CSCC(=O)NC1CCCC1	-4%	-12%
Cn1nc(C(=O)OCC(=O)Nc2ccc(C(N)=O)cc2)c2ccccc2c1=O	0%	-12%
C/C(=N/NC(=O)CCCOc1ccc(Cl)cc1Cl)c1ccc(C)o1	-21%	?
O=C(NCc1c(-n2cccc2)sc2c1CCCC2)Nc1cccc(C(F)(F)F)c1	?	?
Cc1ccccc1CNCc1cccnc1	-7%	-5%
Clc1ccc2nccnc2c1	6%	-14%
O=C(Cn1cnc2cc([N+](=O)[O-])ccc2c1=O)Nc1ccc2c(c1)OCO2	3%	i
O=C1Nc2ccccc2-c2nnnn2C1N1CCCC1 (stereo not given)	3%	0%
CCCOc1ccc(OC(=O)c2sc3ncn(Cc4cccc(F)c4)c(=O)c3c2C)cc1	-3%	3%
O=C(CCCOc1ccc(Br)cc1)Nc1ccc(S(=O)(=O)N2CCOCC2)cc1	-3%	-20%
CC(=O)N1CCN(c2nnnn2-c2ccccc2)CC1	-6%	-13%
CCOc1ccc(NS(=O)(=O)c2ccc(C(=O)NCc3cccnc3)cc2)cc1	-7%	-13%
O=C(c1nc(-c2ccc(Cl)cc2)n2c1CCCCC2)N1CCN(c2ccccc2)CC1	-13%	-23%
CN(C)CCn1c2c(c(SCC(=O)Nc3cccc(C(F)(F)F)c3)nc1=O)CCCC2	?	?
Cc1ccc(NC(=O)CN(C)C(=O)CCOc2cccc(C)c2)cc1	-4%	-16%
COc1ccc(NC(=O)N[C@H]2CC[C@@H](CC(=O)NC3CCC3)O[C@@H]2CO)cc1	-9%	-7%
CCN1CCN(C(=O)c2ccc(COc3ccc(Cl)cc3)o2)CC1	-7%	nt
Cc1ccc(S(=O)(=O)Nn2c(C)ccc2C)cc1	0%	nt
CCOC(=O)[C@@H]1[C@H]2COc3cc(OC)ccc3[C@H]2N2C(=O)N(c3ccc(OC)cc3)C(=O)[C@]12C	-12%	i
COc1cc(OC)c(OC)cc1CNCCCSc1nnnn1C	-3%	-3%
N#CCCN(C(=O)COC(=O)Cc1c[nH]c2ccccc12)c1ccccc1	-10%	-3%
Cc1ccc(C)c(NC(=O)Nc2cccc(-c3cn4cccnc4n3)c2)c1	8%	17%
CN(CC(=O)Nc1ccc(Cl)cc1)C(=O)C1CCCC1	-19%	-13%
Cc1cc(Nc2ccccc2Br)n2nc(C)nc2n1	-7%	-1%
CCC(C(=O)Nc1ccc(C(C)C)cc1)n1nc(C)n2c(cc3cc(C)ccc32)c1=O (stereo not given)	-27%	-29%
CCOCCCNC(=O)CCc1ccc(-n2cnc3cccnc32)cc1	-9%	-12%
Cc1csc(SCc2c(C(=O)O)oc3ccccc23)n1	-1%	4%
O=C(NCCc1cccs1)C12CN(Cc3ccccc3)CC1C(c1cccc([N+](=O)[O-])c1)=NO2 (stereo not given)	-18%	?

A draw from above in order of formula weight, high to low:
SMILES	VACV Venus inh	VACV mCherry inh
COc1cc(OC)c(OC)cc1CNCCCSc1nnnn1C	-3%	-3%
CCOCCCNC(=O)CCc1ccc(-n2cnc3cccnc32)cc1	-9%	-12%
Cc1csc(SCc2c(C(=O)O)oc3ccccc23)n1	-1%	4%

Back to the main list, starting 3 compounds before the break.
SMILES	VACV Venus inh	VACV mCherry inh
CCOCCCNC(=O)CCc1ccc(-n2cnc3cccnc32)cc1	-9%	-12%
Cc1csc(SCc2c(C(=O)O)oc3ccccc23)n1	-1%	4%
O=C(NCCc1cccs1)C12CN(Cc3ccccc3)CC1C(c1cccc([N+](=O)[O-])c1)=NO2 (stereo not given)	-18%	?
Cc1ccc2nc(Nc3ccccc3)c(C=O)c(=O)n2c1	-7%	-3%
Nn1c(SCC(=O)Nc2ccc(S(=O)(=O)N3CCCC3)cc2)nnc1C(F)(F)F	-3%	-17%
c1ccc(-n2cnc3ccccc32)nc1	5%	-14%
CCCc1nnc(NC(=O)CCC(=O)N2CCN(S(=O)(=O)c3ccc(F)cc3)CC2)s1	-23%	-11%
CCn1cc(CN2CCC(n3nccc3NC(=O)c3cccc(F)c3)CC2)cn1	-6%	i
COc1ccccc1NC(=O)c1ccc(-c2ccccc2F)o1	-11%	-2%
COc1ccc(C)cc1NC(=O)C1CCN(C(=O)c2ccc(C(C)(C)C)cc2)CC1	3%	-14%
CCn1c(-c2cccnc2)nc2cc(NC(=O)COC)cc(C(=O)N3CC[C@@H]4CCCC[C@H]4C3)c21	-6%	-15%
CCOc1ccc(NC(=O)NCc2ccc3c(c2)CCN3C(C)=O)cc1	-9%	i
CCOc1ccc(S(=O)(=O)N2CCN(C(=O)c3ccncc3)CC2)cc1	-23%	i
NC(=O)C1CCN(S(=O)(=O)c2cc3c(cc2Cl)NC(=O)CO3)CC1	0%	-7%
Cc1nn(CC(=O)N/N=C/c2cccs2)c(C)c1[N+](=O)[O-]	-9%	-9%
O=C(CSc1nc(=O)n(Cc2ccccn2)c2c1CCC2)Nc1cccc(Cl)c1	-9%	-25%
Cc1cccc(NC(=O)C(=O)c2cc(C)n(-c3ccccc3)c2C)c1C	-4%	-4%
CC(C)c1nn2c(=O)cc(COC(=O)c3cccc(NC(=O)CCc4ccccc4)c3)nc2s1	-6%	-9%
COc1ccc(NC(=O)CN2C(=O)COc3ccc(S(=O)(=O)N4CCCCCC4)cc32)cc1	-8%	-11%
Cc1ccc(NC(=O)CN2CCN(C3CCCCC3)C(=O)C2=O)cc1C	-2%	-13%
CCN(CC)C(=O)c1[nH]cnc1C(=O)N[C@@H](C)C(=O)OCc1ccccc1	-10%	i
CCOC(=O)c1c(C)[nH]c(N=Nc2ccccc2)c1C	-18%	nt
COc1ccc(NC(=O)c2cccc(N3C(=O)C4CCC(C)CC4C3=O)c2)c(OC)c1 (stereo not given)	1%	i
CCn1c(=O)cc(OCC(=O)Nc2nc(C)cs2)c2ccccc21	-14%	-14%
NN=C1c2ccccc2-c2ccc(N)cc21	-18%	-27%
O=[N+]([O-])c1cccc(NC(=S)N2CCN(S(=O)(=O)c3ccccc3)CC2)c1	-14%	-5%
Cc1ccccc1-c1nn(-c2ccc(F)cc2F)cc1CNCCCN(C)C	-21%	-10%
COCCCn1c(SCC(=O)NC2CCCC2)nnc1-c1ccco1	-12%	i
CC(C)c1ccc(S(=O)(=O)N2CCN(C(=O)C3CCCC3)CC2)cc1	4%	14%
Nc1nc(=S)c2[nH]c(=S)[nH]c2[nH]1	-7%	?
Cc1ccc(CSCC(=O)N2CCN(c3ccccc3)CC2)cc1	-13%	-10%
CCOc1ccccc1NC(=O)c1cc(S(=O)(=O)N2CCN(CC)CC2)ccc1Cl	-19%	-6%
Cc1cn([C@@H](CCCCN)C(=O)NCCCCCCCCCCC(=O)N2CCNCC2)nn1	-1%	i
O=C(NC1CCN(Cc2ccc(Cl)cc2Cl)CC1)c1ccccc1	-16%	i
Cc1nc2c(OCc3ccc(Cl)cc3)cccn2c1N(C)Cc1cccs1	-19%	13%
CCOC(=O)c1c(S(=O)(=O)N2CCCC(C(=O)Nc3cccc(Cl)c3)C2)c(C)n(C)c1C (stereo not given)	-15%	-9%
Cc1ccc(CNC(=O)Cn2nnc(C(=O)Nc3ccc(Br)cc3)c2N)cc1	0%	i
Cc1nc2ccccc2cc1C(=O)NCc1ccc(F)cc1	-3%	-8%
COCCn1c(CNC(=O)c2cccc(N(C)C)c2)nc2cccnc21	-2%	-9%
CC(C)CCOc1ccc(C(=O)Nc2sc3c(c2C#N)CCCCC3)cc1	-24%	-23%
Cc1noc(C)c1Cn1c(C)c(C(=O)NCc2ccc3c(c2)OCCO3)sc1=O	3%	14%
COCc1cc(OC(=O)N(C)C)nc2c1c(C)nn2C	-12%	-12%
O=C(CCSC1=NCCCN1)c1ccc(F)cc1	-7%	-26%

Molecules shown so far with bromine (4):
SMILES	VACV Venus inh	VACV mCherry inh
CC(=O)N1CCN=C1SCc1ccc(Br)cc1	-8%	3%
O=C(CCCOc1ccc(Br)cc1)Nc1ccc(S(=O)(=O)N2CCOCC2)cc1	-3%	-20%
Cc1cc(Nc2ccccc2Br)n2nc(C)nc2n1	-7%	-1%
Cc1ccc(CNC(=O)Cn2nnc(C(=O)Nc3ccc(Br)cc3)c2N)cc1	0%	i

(further entries)
SMILES	VACV Venus inh	VACV mCherry inh
CCOC(=O)N1CCN(C(=O)c2ccc(CSc3ccc(Cl)cc3)cc2)CC1	4%	-18%
O=C1N(C2CCCC2)C[C@@H]2C[C@@H](c3cccn3-c3ccccn3)N3CCC[C@@]123	-10%	-13%
Cc1ccc2ccc3cc(C(=O)Nc4ccc(C)c(F)c4)nc3c2[nH]1	-27%	i
COc1ccc(C)cc1S(=O)(=O)NCc1cccs1	-19%	-7%
C[C@]12CCC3C(CC[C@H]4C[C@H](O)CC[C@]34C)C1C[C@@H](O)[C@H]2O (stereo not given in full)	-18%	i
CCN(CC)C(=O)C1(P(=O)(c2ccccc2)c2ccccc2)CCC1	-18%	-20%
O=C(NC(=S)NC(=O)c1ccccc1F)c1ccccc1F	?	?
CCOc1ccc(N/C=C/C(=O)c2ccc(OC)cc2)cc1	-13%	i
Cc1sc2ncn(CC(=O)N3CCCCC3)c(=O)c2c1S(=O)(=O)N1CCC(C)CC1	-11%	-10%
Cc1ccc2[nH]c3ccccc3c(=O)c2c1	-16%	i
O=C(N/C(=C/c1ccc(F)cc1)C(=O)N1CCOCC1)c1ccco1	-11%	i
CCN(CC)S(=O)(=O)c1ccc(N2CCN(S(=O)(=O)c3ccccc3C#N)CC2)nc1	-21%	nt
CCC(=O)N1CCc2cc(S(=O)(=O)NC(Cc3ccccc3)C(=O)NC3CCCCC3C)ccc21 (stereo not given)	-9%	-22%
COCCCNC(=O)c1ccc(CSCc2ccc(C)cc2)o1	-17%	-2%
O=C(Cn1c(=O)n(-c2ccc(F)cc2)c(=O)c2sccc21)c1ccccc1	-13%	-1%
Cc1ccc(NC(=O)OCCNC(=O)c2ccncc2)cc1	-1%	-13%
CCOC(=O)C1(C)NC(c2ccco2)C2C(=O)N(C)C(=O)C21 (stereo not given)	-9%	i
Cc1c(C(=O)Nc2nccs2)oc2c(Cl)cccc12	-10%	-6%
Cn1c(Nc2ccc(Cl)cc2F)nc2cc(-c3ccccc3)sc2c1=O	-6%	i
CCOC(=O)c1sc(=S)n(Cc2ccccc2)c1C	-6%	-1%

Entries of single compounds, looked up by structure. Screens in order: VACV Venus inh	VACV mCherry inh
Record of `Cc1sc2ncn(CC(=O)N3CCCCC3)c(=O)c2c1S(=O)(=O)N1CCC(C)CC1` → -11%	-10%
Record of `O=C(Cn1c(=O)n(-c2ccc(F)cc2)c(=O)c2sccc21)c1ccccc1` → -13%	-1%
Record of `CCN(CC)S(=O)(=O)c1ccc(N2CCN(S(=O)(=O)c3ccccc3C#N)CC2)nc1` → -21%	nt

The listing continues:
SMILES	VACV Venus inh	VACV mCherry inh
Cc1cnc(C(=O)N2CCCC(C(=O)c3ccc(C(C)(C)C)cc3)C2)cn1 (stereo not given)	-18%	-5%
CCOc1cc(C(=O)OCC(=O)Nc2ccc(Cl)cn2)ccc1OCC(=O)N1CCOCC1	0%	-8%
COc1ccc([C@H]2C[C@@H](n3cc(COC(=O)c4ccccc4)nn3)[C@H](O)CN2C(=O)C2CCCCC2)cc1	-27%	-11%
Cn1c(C(=O)NCc2ccccc2)cc2oc3ccccc3c21	-7%	5µM*
O=C(COC(=O)c1cc[n+]([O-])cc1)Nc1ccc([N+](=O)[O-])cc1Cl	0%	?
COc1ccc([C@H]2CC(=O)C=C(c3ccc(OC)cc3OC)C2)cc1	?	?
COC(=O)C1=C(C)N=C2SCCC(=O)N2C1c1cc(Br)ccc1OC (stereo not given)	-10%	nt
COc1ccc(CCNC(=O)COc2ccc(S(=O)(=O)NC3CCCCC3)cc2Cl)cc1	?	i
COc1ccc(-c2c(C)nn3c(N)c(C#N)cnc23)cc1OC	-17%	-25%
Cc1ccc(S(=O)(=O)CCC(=O)c2cccc([N+](=O)[O-])c2)cc1	-22%	-5%
Cc1cccc(C(=O)Nc2ccc(-c3nc4ncccc4o3)cc2C)c1	-10%	-3%
CCN(CC(=O)NCc1ccc(Cl)cc1)C(=O)CCc1ccccc1O	-20%	-4%

Screening data deposited in PubChem BioAssay by National Center for Advancing Translational Sciences (NCATS).

Outcome played no part in choosing rows; 0.87% or so of the library scored in one or more.
